Screening results deposited in PubChem BioAssay by several laboratories.
MT1-MMP act inh – inhibitors of human MT1-MMP activation; 360,000 tested, 0.061% active; P50281; AID 651647; GFP/RFP ratio change, % at 20 µM; HT1080 RFP-PRO-GFP cells, GFP/RFP ratio fluorescence, overnight; percent of plate control window, DMSO zero;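 active = GFP/RFP ratio change of at least 30% with cell ATP level not reduced by more than half and red fluorescence within 50% of control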; also: strong numbers were not always called active
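Compound: 20 µM single dose, 1% DMSO / System: HT1080 RFP-PRO-GFP cells / Controls: DMSO and RFP-L50D-GFP cell wells / Read-out basis: GFP/RFP fluorescence ratio / Schedule: overnight compound exposure at 37 °C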
PABP polyA inh – PABP-poly(A) binding inhibition; 290,000 tested, 1% active; inhibition, % at 35 µM; AID 2014; PABP-poly(A) RNA binding, fluorescence polarization;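 active = 50% or more with normal probe brightness, or confirmed in later tests; inconclusive = above 50% with abnormal brightness, or retests that disagree; inactive = below 50% or failed in later tests; about a fifth of its hits are not listed in these tables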;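 also: calls also rest on retests at 20 µM and on dose response follow-up; controls were probe without protein and protein plus probe with vehicle; some compounds called inactive have numbers as strong as hits; many hits fall short of the cut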
Target sequence (P11940 whole entry, looked up): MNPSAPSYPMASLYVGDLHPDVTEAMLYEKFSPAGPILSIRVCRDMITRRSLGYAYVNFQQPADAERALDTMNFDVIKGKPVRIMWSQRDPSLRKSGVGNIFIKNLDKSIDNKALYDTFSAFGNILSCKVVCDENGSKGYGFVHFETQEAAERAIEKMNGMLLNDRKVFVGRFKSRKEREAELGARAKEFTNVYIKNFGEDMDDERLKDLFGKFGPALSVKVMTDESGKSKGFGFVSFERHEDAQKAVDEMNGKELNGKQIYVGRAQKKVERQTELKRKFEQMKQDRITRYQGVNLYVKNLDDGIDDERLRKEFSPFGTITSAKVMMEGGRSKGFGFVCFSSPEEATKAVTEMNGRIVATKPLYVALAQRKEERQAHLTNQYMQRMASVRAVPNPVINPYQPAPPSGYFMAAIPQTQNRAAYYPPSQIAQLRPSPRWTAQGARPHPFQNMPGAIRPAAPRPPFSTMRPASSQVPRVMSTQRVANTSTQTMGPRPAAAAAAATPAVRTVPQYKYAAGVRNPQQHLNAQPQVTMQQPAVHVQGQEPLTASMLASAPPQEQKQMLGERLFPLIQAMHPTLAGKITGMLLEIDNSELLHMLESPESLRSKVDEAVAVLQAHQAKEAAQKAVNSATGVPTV
UUG fidelity – yeast start codon fidelity modulation; 350,000 tested, 0.13% active; activity score, % at 18.7 µM; AID 602363; S. cerevisiae UUG-firefly luciferase reporter, luminescence/redox ratio;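 active = replicate mean at a twofold rise or more, about +100% in these data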;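 also: firefly luciferase made from a UUG start codon reports start codon fidelity; reporter light over untreated wells divided by growth signal over untreated wells; some hits fall short of that in this replicate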
HIV Env fusion – HIV envelope-mediated fusion inhibition; HeLa-JRFL Env/CEM21 cell fusion, luciferase; inhibition, % at 12.3 µM; 360,000 tested, 1.1% active;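 active = mean replicate inhibition score of at least 50 and every replicate individually at or above 50; inconclusive = only one of the two criteria met; inactive = mean below 50 and not all replicates reaching 50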;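 also: 0% = plate neutral controls and 100% = maraviroc near 300 nM; one replicate is shown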
CSC inhib – cancer stem cell inhibition | cancer stem cell-like cells viability, luminescence | inhibition, % at 7.5 µM | 300,000 tested, 1.1% active | AID 2717;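 active = mean at 75% or more and at least half the replicates too; inconclusive = mean and replicates disagree; tested in HMLE shEcad cells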;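 also: 0% = median of negative and 100% = median of positive control wells; the first replicate is given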
eIF4H FP inh – inhibitors of RNA binding by human eIF4H; Q15056; eIF4H fluorescence polarization binding assay; inhibition, % at 35 µM; 290,000 tested, 0.94% active;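 active = 50% or more with normal probe brightness, or confirmed in later tests; inconclusive = above 50% with abnormal brightness, or retests that disagree; inactive = below 50% or failed in later tests; about a fifth of its hits are not listed in these tables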;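 also: calls also rest on retests at 20 µM and on dose response follow-up; 0% = protein and probe with vehicle and 100% = probe without protein; strong numbers were not always called active; many hits fall short of the cut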
Rce1 inhib – inhibitors of yeast Ras-converting enzyme. Q03530. yeast membranes, quenched prenylated peptide cleavage fluorescence. calls only. 290,000 tested, 0.27% active;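 active = fall in fluorescence gain of 50% or more versus controls, with final raw signal at or below 3038400; inconclusive = same 50% fall but final raw signal above 3038400; inactive = fall in fluorescence gain under 50%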;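 also: plate controls were neutral control wells for no effect and wells lacking membranes for full effect; tested at 10 µM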
eIF4H FP inh retest – further read-out of eIF4H FP inh, marked with its call; inhibition, %; compound at 20 µM; confirmation average;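 mean of two retest wells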
PABP polyA inh retest – recorded beside PABP polyA inh, whose call it bears; inhibition, %; compound at 20 µM; confirmation repeats;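 mean of two retest wells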
MT1-MMP act inh RFP – further read-out of MT1-MMP act inh, marked with its call; RFP signal change, %; measured here: RFP expression control read;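 0 = vehicle wells; hits needed this value within 50% of zero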
* hit, by the source's call; i = inactive; ? = inconclusive; . = not tested or not shown. An excerpt (hit frequency here may not be typical).

SMILES | MT1-MMP act inh | MT1-MMP act inh RFP | PABP polyA inh | UUG fidelity | HIV Env fusion | CSC inhib | eIF4H FP inh | Rce1 inhib | others
CCOC(=O)CSc1nnc(-c2ccccc2NC(=O)c2ccccc2)o1 | 4 | -1 | -3 | -21 | -17 | 13 | -1 | i
O=C(CSc1ccc(-c2cccs2)nn1)c1cccs1 | 6 | 0 | ? | . | -13 | -3 | 3 | i
COC(=O)C1CCN(C(=O)Cc2ccc(C)cc2)CC1 | -4 | -6 | -8 | -4 | -37 | 10 | 6 | i
CCc1nc2ccc(C(=O)NCc3cccs3)cn2c1N(C)Cc1nccs1 | -4 | -3 | . | -16 | ? | . | . | .
CC(C)N1CCc2c(sc(NC(=O)c3ccc(S(=O)(=O)N4CCc5ccccc54)cc3)c2C(N)=O)C1 | -104 | -11 | ? | 33 | . | 113* | ? | i
COc1ccc2oc(-c3ccccc3[N+](=O)[O-])cc(=O)c2c1 | -10 | -16 | -5 | . | -61 | 64 | -3 | i
COc1cccc(NC(=O)CN2C(=O)NC3(CCCCCC3)C2=O)c1 | 4 | 5 | . | -8 | -4 | -24 | . | .
CC(NC(=O)CSC(=S)N1CCCC1)c1ccc(S(N)(=O)=O)cc1 (stereo unspecified) | 4 | -1 | . | -4 | 30 | -5 | . | i
Nc1nc2ccccc2n1/N=C/c1ccc([N+](=O)[O-])s1 | -1 | -17 | 5 | . | 4 | 5 | 3 | i
O=C(O)c1ccc(N2N=C(c3ccccc3)CC2c2ccccc2)cc1 (stereo unspecified) | 6 | 1 | 6 | -22 | 12 | 5 | -2 | i
Cc1cccc(NC(=O)CSCC(=O)N(C)CCOc2ccc(Cl)cc2)c1 | 0 | 0 | . | -7 | -23 | -7 | . | i
CC(C)(C)n1nc(-c2ccc(F)cc2)c2c(N)ncnc21 | -1 | -2 | -4 | -23 | . | 6 | -2 | i
CC(=O)c1ccc(NC(=O)CSc2nnc(C3CC3)n2C)cc1 | 0 | 2 | 8 | -20 | -1 | -2 | 3 | i
N#CCCN(C(=S)NC(=O)c1cccs1)c1ccccc1F | -4 | 3 | . | 10 | -43 | . | . | .
CC(C)c1ccccc1OCCCCN1CCCCC1 | -3 | 2 | . | -4 | 10 | 14 | . | .
O=C(Nc1cccc(NC(=O)c2cccs2)c1)c1ccc(Br)cc1 | 2 | -4 | -4 | -17 | 6 | -8 | -7 | i
COc1ccccc1NC(=O)CSc1n[nH]c(-c2ccccn2)n1 | 1 | 1 | -4 | . | -3 | 0 | 17 | i
O=C(NCC(c1ccco1)N1CCOCC1)C1CCCCC1 (stereo unspecified) | -1 | 4 | . | -9 | 13 | 0 | . | i
COc1ccc(OC)c(NC(=O)CCC(=O)Oc2ccc(C)cc2)c1 | -2 | -1 | 1 | -5 | 21 | -19 | -8 | i
O=C(Nc1ccc(Br)c2cccnc12)c1ccc(Cn2cc(Cl)cn2)o1 | 1 | 4 | -3 | . | 14 | 5 | 20 | .
CC(C)CCNC(=S)Nc1ccccc1F | 4 | -3 | -6 | -35 | . | -6 | -1 | i
COCCNC(=O)C1(C)CCCN(C(=O)c2ccc(OC)c(OC)c2)C1 (stereo unspecified) | 3 | 5 | . | -1 | -5 | . | . | .
O=C(CSc1nnc(C2CC2)n1Cc1ccccc1)c1cc2ccccc2o1 | -8 | 0 | 18 | -7 | 19 | 0 | -2 | i
O=C(COc1c(F)c(F)c(C(F)(F)F)c(F)c1F)Nc1ccc(N2CCOCC2)c(Cl)c1 | 9 | 6 | -3 | -2 | 3 | 32 | -1 | i
COc1cccc(C2Nc3ccccc3C(=O)N2Cc2ccccc2)c1 (stereo unspecified) | -7 | 0 | . | -3 | 8 | -5 | . | i
COc1ccc(CNc2ccccn2)c(O)c1 | 1 | 3 | 11 | -15 | -20 | . | 6 | i
COc1ccccc1C(=O)NCCC(=O)N1CC(=O)Nc2ccccc21 | -4 | -5 | 4 | -6 | . | -13 | -2 | i
Cc1nn(-c2ccccc2)c2nc(Cl)c(C(=O)O)cc12 | -2 | 1 | -5 | . | 23 | 6 | -8 | i
Cc1ccccc1NC(=S)NC1CC2CCC(C1)N2Cc1ccco1 (stereo unspecified) | 7 | 1 | -22 | -20 | -15 | 8 | -5 | i
CCCC(=O)CN1C(=O)C2(OCCO2)c2ccccc21 | 0 | 2 | 8 | -17 | 5 | -20 | 4 | i
CC(C)(C)c1ccc(S(=O)(=O)N2CCCC2C(=O)NC2=NCCS2)cc1 (stereo unspecified) | 7 | 4 | 5 | -10 | . | -1 | -2 | i
CCOC(=O)/C(=C\c1ccccc1)C(=O)c1cc(C(C)=O)c(Nc2ccccc2)s1 | -34 | -26 | -11 | -7 | . | 76* | 8 | i
CCO[C@@H]1OC(C(N)=O)=C[C@H](c2ccccc2)[C@H]1CCCO | 1 | 2 | 2 | -17 | -6 | 6 | -5 | i
Cn1nc(C(=O)NC(C)(C)C)c2ccccc21 | -1 | -4 | 0 | . | 3 | 5 | -3 | i
CCCOc1ccc(C(=O)OCC(=O)c2c(N)n(C)c(=O)n(C)c2=O)cc1OCC | 4 | 3 | -12 | . | 3 | -17 | -10 | i
CN1C(=O)Cc2cc(S(=O)(=O)N3CCN(c4cccc(Cl)c4)CC3)ccc21 | -2 | 4 | -6 | -10 | -9 | -3 | -18 | i
CCc1nccn1S(=O)(=O)c1cc(C)c(OC)cc1C | 0 | 3 | 12 | -12 | -20 | -5 | -10 | i
CCN(CC)S(=O)(=O)c1ccc(Cc2ncc(C(F)(F)F)cc2Cl)s1 | -10 | -8 | 8 | -16 | 48 | 10 | 1 | i
Cc1ccc(-n2c(C)nn(-c3ncc(C(F)(F)F)cc3Cl)c2=O)cc1 | -5 | -1 | -6 | -23 | . | 5 | -14 | i
CCCCNC(=O)O[C@@H]1C[C@H]2CCC(=O)N3CC[C@@H](C1)[C@@H]23 | 0 | 0 | 5 | 6 | 8 | 7 | 6 | i
O=C(Nc1cccc([N+](=O)[O-])c1)C1C2/C=C\CCCCC21 (stereo unspecified) | -1 | 1 | -5 | . | -3 | -5 | 4 | i
CCOc1ccccc1NC(=O)Cn1c(=O)sc2ccccc21 | 3 | -1 | -4 | . | 15 | -9 | -7 | i
CN1C(=O)/C(=C/C=C2/CCCN2C)N(C)C1=S | -4 | 10 | 52 | -26 | -5 | . | 83 | i | eIF4H FP inh retest=1;PABP polyA inh retest=0
Cc1ccc2cc3cc(C(=O)N4CCCCCC4)oc3nc2c1 | -2 | -1 | -11 | -41 | . | -20 | 0 | i
COc1cc(COc2ccc3c(C)c(Cc4ccccc4)c(=O)oc3c2C)cc(OC)c1OC | -5 | -13 | -7 | -19 | -40 | 36 | 4 | i
COc1ccc(/C=N/NC(=S)Nc2ccccc2)cc1COc1ccc(Br)cc1 | 7 | 4 | 9 | -17 | 0 | -5 | 9 | i
COc1ccc(S(=O)(=O)N(CC(=O)N/N=C/c2cccs2)c2cc(C)cc(C)c2)cc1OC | 10 | -2 | -3 | -11 | . | -8 | -11 | i
O=C(CCn1ccnc1)Nc1cc(Cl)ccc1O | 3 | 5 | -5 | -15 | 11 | -14 | 4 | i
Cc1ccc2nc(NC(=S)NC(=O)c3ccc(OC(C)C)cc3)sc2c1 | 2 | 6 | . | . | 0 | -1 | . | i
COc1ccc(OCCCC(=O)Nc2ccc(OC)c(S(=O)(=O)N3CCOCC3)c2)cc1 | -1 | -4 | . | 7 | 0 | -6 | . | .
CC(=O)c1c(N=CN(C)C)nc(C)nc1-c1ccccc1 | 5 | 8 | 5 | -14 | . | -13 | -4 | i
O=C(COC(=O)COc1ccccc1F)Nc1cccc(S(=O)(=O)N2CCCCC2)c1 | 4 | 2 | . | -11 | 3 | -21 | . | .
O=C(NCc1ccccc1)c1ccc(Br)o1 | 0 | 3 | 5 | -23 | 6 | -8 | -3 | .
Cc1sc2nc3n(c(=O)c2c1C)NC(=O)CC3 | -3 | 6 | 3 | -14 | . | -1 | -3 | i
Cc1ccc(C(=O)N/N=C2\CCc3ccccc32)c(C)c1 | 2 | 7 | 1 | -10 | -34 | -2 | -7 | i
O=C(O)c1ccc2c(c1)C(=O)N(c1ncccn1)C2=O | 4 | 10 | 0 | . | . | 0 | -1 | i
COc1ccc(-c2c(C)nn(-c3ccccc3)c2NC(C)=O)cc1OC | -2 | -1 | 12 | -7 | 6 | 4 | -2 | i
COc1ccc(NC(=O)Nc2cccc3c2O[C@H](CN(C)C(=O)Nc2ccc4c(c2)OCO4)[C@@H](C)CN([C@H](C)CO)C3=O)cc1 | 5 | -2 | . | 7 | 29 | -1 | . | .
CN(Cc1ccccc1)c1cc2c(c3c1ccn3C)C1CCC2C1 (stereo unspecified) | -3 | -5 | . | -10 | 10 | . | . | .
COc1cc(/C=N/NC(=O)c2c(C)nnn2-c2nonc2N)ccc1O | 5 | -1 | -8 | . | -5 | -10 | 2 | i

Grouped by structure: the compounds so far with a COOH group.
SMILES | MT1-MMP act inh | MT1-MMP act inh RFP | PABP polyA inh | UUG fidelity | HIV Env fusion | CSC inhib | eIF4H FP inh | Rce1 inhib | others
O=C(O)c1ccc(N2N=C(c3ccccc3)CC2c2ccccc2)cc1 (stereo unspecified) | 6 | 1 | 6 | -22 | 12 | 5 | -2 | i
Cc1nn(-c2ccccc2)c2nc(Cl)c(C(=O)O)cc12 | -2 | 1 | -5 | . | 23 | 6 | -8 | i
O=C(O)c1ccc2c(c1)C(=O)N(c1ncccn1)C2=O | 4 | 10 | 0 | . | . | 0 | -1 | i

Reprinted at random: 4 records from the list, in no set order.
SMILES | MT1-MMP act inh | MT1-MMP act inh RFP | PABP polyA inh | UUG fidelity | HIV Env fusion | CSC inhib | eIF4H FP inh | Rce1 inhib | others
COc1ccc(NC(=O)Nc2cccc3c2O[C@H](CN(C)C(=O)Nc2ccc4c(c2)OCO4)[C@@H](C)CN([C@H](C)CO)C3=O)cc1 | 5 | -2 | . | 7 | 29 | -1 | . | .
O=C(Nc1cccc([N+](=O)[O-])c1)C1C2/C=C\CCCCC21 (stereo unspecified) | -1 | 1 | -5 | . | -3 | -5 | 4 | i
COc1ccc(OCCCC(=O)Nc2ccc(OC)c(S(=O)(=O)N3CCOCC3)c2)cc1 | -1 | -4 | . | 7 | 0 | -6 | . | .
O=C(NCc1ccccc1)c1ccc(Br)o1 | 0 | 3 | 5 | -23 | 6 | -8 | -3 | .

Remaining list, next part:
SMILES | MT1-MMP act inh | MT1-MMP act inh RFP | PABP polyA inh | UUG fidelity | HIV Env fusion | CSC inhib | eIF4H FP inh | Rce1 inhib | others
CCCc1cc(=O)[nH]c(SCC(=O)Nc2oc(C)c3c(C)n[nH]c(=O)c23)n1 | 6 | 5 | . | -16 | -4 | 2 | . | i
CN(C)C(=O)CCc1ccc2c3c([nH]c2c1)[C@]1(CCC2CCCC2)[C@@H](C(=O)N2CCOCC2)C[C@H](CC(=O)NCCN2CCOCC2)C(=O)N1CC3 | 3 | 2 | . | 13 | 15 | . | . | .
O=C(c1sccc1Br)N1CCN(Cc2ccc3c(c2)OCO3)CC1 | -4 | -14 | 1 | -22 | 35 | -7 | -5 | i
O=C(O)CCCNc1cc(N2CCC3(CC2)OCCO3)c2noc3c2c1C(=O)c1ccccc1-3 | . | . | 105* | . | . | 38 | 115* | .
